Compound activity (PubChem)
AID504770: E. coli YBA685 growth inhibition, screen for V. cholerae RctB inhibitors | E. coli YBA685 rctB-dependent plasmid, OD600 growth, 3 h; hits give low values | z-score (test concentration not listed) | hit rate 0.27% among 130,000;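 active means z-score under -2 on both plates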;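 further: wells of about 30 µL received 100 nL stock; score is relative to mean and SD of the test wells; the first replicate is given; strong numbers were not always called active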
Ba CapD inh: blocks the Bacillus anthracis CapD enzyme. z-score (no concentration beside the values). hit rate 0.23% among 140,000. AID 492967. purified CapD enzyme, fluorescence intensity read-out; hits give low values; some hits fall short of the stated cut;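 active means z-score under -4 in either of two replicates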;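 further: stock transfer was 100 nL into about 40 µL; score is relative to mean and spread of the plate; one replicate is shown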
Starred values were filed as active, the others as inactive; · = not tested or not shown.

SMILES	AID504770	Ba CapD inh
COC(=O)c1ccc(CSc2ncccn2)o1	-0.75	0.16
CS(=O)(=O)c1ccc(F)c(N2C(=O)C=CC2=O)c1	·	-0.52
N#Cc1ccccc1Sc1ccccc1C(=O)NC(Cc1ccccc1)C(N)=O (centres undefined)	0	-0.29
O=c1[nH]c2ccccc2c(N2CCOCC2)c1N1CCOCC1	0.25	-0.64
N/C(=N\S(=O)(=O)c1cc(Cl)c(Oc2ccc([N+](=O)[O-])cc2Cl)c(Cl)c1)c1ccccn1	·	-0.085
CC(Sc1nnnn1-c1ccccc1)C(=O)O (centres undefined)	0.7	0.38
Cc1sc2ncnc(Nc3ccc(CN4CCOCC4)cc3)c2c1C	1.3	·
CCOc1cc(C2C(C#N)=C(N)Oc3n[nH]c(-c4cccs4)c32)cc(Br)c1O (centres undefined)	·	-0.17
CC(C)(C)C(=O)Cn1cnc2ccccc2c1=O	-0.05	·
CCOC(=O)COc1ccccc1/C=C1\N=C(SCC)SC1=O	0.3	-0.61
N#Cc1cc(-c2ccc(Cl)cc2)cn(Cc2ccc(Cl)cc2Cl)c1=O	·	0.095
COc1ccc(-c2cc(C(F)(F)F)nc(NCC3CCCO3)n2)cc1 (centres undefined)	1.7	-0.38
Cc1cn([C@H]2C[C@@H](O)[C@@H](CO)O2)c(=O)n(C)c1=O	·	-0.16
CCOC(=O)c1ccc(S(=O)(=O)n2c(=O)oc3ccccc32)cc1	0.5	·
CC1CCN(CC(=O)C(C#N)c2ccccc2)CC1 (centres undefined)	1.9	-0.74
CCCc1cc(-c2[nH]ncc2-c2ccc(C(=O)NN)o2)c(O)cc1O	-0.3	·
CC1CCN(C(=O)COC(=O)c2nccnc2N)CC1	0.2	·
COc1ccc(N2CCN(C(=O)c3cc4sccc4n3Cc3ccccc3)CC2)cc1	2	·
CCOC(=O)c1c(NC(=O)CSc2ncn(-c3ccccc3)n2)sc2c1CCCC2	-0.2	1.1
COc1cc(-c2c(C#N)c(N)nc3[nH]c(=S)[nH]c(=O)c23)ccc1O	0.4	-2.3
COc1ccc(-c2[nH]ncc2CN2CCC(c3ccccc3OC)CC2)cc1	0.1	1
O=C1C2C3C=CC(C2C(=O)N1c1ccccn1)C1C2C(=O)N(c4ccccn4)C(=O)C2C31 (centres undefined)	·	0.01
CCOC(CNC(=O)c1ccc2c(c1)ncn2-c1cc(OC)c(OC)c(OC)c1)OCC	·	-1.5
CS(=O)(=O)c1ccc(/C=C/C(=O)NCCN2CCOCC2)cc1	·	-0.64
c1ccc(-c2cnc(-c3ccccc3)nn2)cc1	·	-0.45
CC1=C(C(=O)OC(C)C)C23C(=O)c4ccccc4C2(O1)OC(N)=C3C#N (centres undefined)	-0.2	0.9
O=C(CSc1cccc[n+]1[O-])NC(=O)C1COc2ccccc2O1 (centres undefined)	2.1	·
CCOc1ccc(CC(=O)C2C(=O)CC(C)(C)CC2=O)cc1OCC	-0.85	-0.17
C=CCC(NCCc1ccccc1)c1ccco1 (centres undefined)	-1.1	-0.15
CSc1nc(C)cc(OCCNC(=O)Nc2ccccc2)n1	-0.2	0.37
O=c1[nH]nc(Sc2nc(-c3cccs3)ns2)n1-c1ccc(Cl)cc1	-0.7	-0.94
CCn1c(SCC(=O)N2CCc3ccccc32)nnc1C(C)C	0.75	·
O=S(=O)(c1ccc(-c2nc3ccccc3s2)cc1)N1CCOCC1	-0.2	0.42
Cc1nnsc1C(=O)NCc1ccc2c(c1)OCO2	·	-0.26
Cc1nc(-c2ccccn2)nc(SCC(=O)c2ccc(F)cc2)c1Cl	0.95	-0.58
COc1ccc2cc3cc(C(=O)N(C)C4CCCCC4)oc3nc2c1	-1.5	15
NS(=O)(=O)c1ccc(NC(=O)c2ccc(-c3nc4ccccc4s3)s2)cc1	-0.75	0.66
CCSc1nnc(NC(=O)C(C)Sc2ccccc2)s1 (centres undefined)	-0.8	·
COC(=O)c1ccc(CSc2nc(C)cc(C)n2)cc1	0.6	-0.3
NC1=NC(=O)/C(=C\c2ccccc2C(F)(F)F)S1	1.7	-1.7
CN1CCN(C(=O)CSc2nc(-c3ccccc3)cc(-c3ccc(F)cc3)c2C#N)CC1	·	0.16
O=C(NC(c1ccccc1)C(N=Cc1ccccc1)c1ccccc1)c1ccccc1 (centres undefined)	·	0.72
O=C(Nc1ccc(F)cc1)Nc1ccc2c(c1)C(=O)OC2	0.9	-0.11
CCCCC1(c2ccccc2)NC(=O)NC1=O (centres undefined)	-0.7	·
COc1ccc(CCN2C(=O)C=CC2=O)cc1OC	-1.9	-0.025
Cc1ccc(S(=O)(=O)Oc2ccc(C3(C)CC(C)(C)NC(=S)N3c3ccccc3)c(OS(=O)(=O)c3ccc(C)cc3)c2)cc1 (centres undefined)	·	-0.13
COc1ccc(N2C(=O)CC2(/C=C/c2ccccc2)C(=O)NC2CCCCC2)cc1 (centres undefined)	0.9	0.09
CCOC(=O)C1=C(O)/C(=C/c2ccc(N(CC)CC)cc2)SC1=Nc1ccccc1	·	0.14
CC(C)C[C@@H](NC(=O)OCC1c2ccccc2-c2ccccc21)C(=O)O	·	-0.68
COc1ccc(C(NC(=O)c2cccnc2)c2cc(Cl)c3cccnc3c2O)cc1 (centres undefined)	·	-0.39
C=CCOc1c(CNc2ccc(C(=O)O)cc2)cccc1OCC	-0.8	1.5
Cc1cccc2[nH]ncc12	-0.9	0.095
CC1(C)CC(=O)C2=C(C1)Nc1ccc3ccccc3c1C2c1ccc(OCc2ccccc2)cc1 (centres undefined)	·	96
Cc1ccc(S(=O)(=O)CCN2C(=O)CSC2=O)cc1	·	-0.13
C=CCN1C(=O)/C(=C\c2ccc(N(CC)CC)cc2)C(=O)NC1=S	0.2	-0.86
C=CCn1c(C)cc(C(=O)COC(=O)C2C(C(=O)OCC)=C(C)NC(C)=C2C(=O)OCC)c1C	0.7	·
COc1cc(OC)nc(C2CCN(C(=O)CCC(=O)NCCc3ccccc3)CC2)n1	·	-0.095
O=C(Nc1ccc(C(F)(F)F)cc1)c1cc(S(=O)(=O)N2CCN(c3ccccc3F)CC2)ccc1F	·	-0.27
CCN(C(=O)COc1ccc(Cl)cc1Cl)c1cccc(C)c1	-0.2	-0.28
CCC1CCC2(CC1)NNC(=S)NN2	1.1	-0.42

Other structures
SMILES	AID504770	Ba CapD inh
Cc1ccc(Sc2c(-c3ccccc3)nc3sccn23)cc1	0.1	0.095
O=C1N/C(=N/N=C/c2cccs2)SC1Cc1ccccc1 (centres undefined)	-0.15	-0.6
O=C(CN1C(=O)C2C3C=CC(C3)C2C1=O)OCCCc1ccccc1 (centres undefined)	0.1	0.43
O=C1CCN(C(=O)/C=C/c2ccccc2)CCN1	·	-0.12
CSc1ccccc1NC(=O)CSc1nccn1C	-0.6	0.72
CCOC(=O)c1cnn(-c2ccc(F)cc2F)c1C	·	0.12
Cc1c(NC(=O)c2nn3c(c2Cl)NC(c2ccco2)CC3C(F)(F)F)c(=O)n(-c2ccccc2)n1C (centres undefined)	·	0.12
CC(=O)N1CCC(N(C(=O)CCC(=O)NCc2ccc(Cl)cc2)C2CC2)CC1	·	-0.32
Cc1ccc(OCC(=O)O)c(C)c1	-0.95	-0.085
CC(=O)NCc1ccc(C(=O)CSc2nc(C)nc3scc(-c4cccs4)c23)o1	-0.35	·
COC(=O)Cc1nc(-c2ccccc2)oc1C	-0.9	-1.1
CC(C)(C)c1cc2nc(-c3ccc4c(c3)OCO4)cc(C(F)(F)F)n2n1	·	-0.06
CC1(C)CC(=O)C2=C(C1)OC1=C(C(=O)CC(C)(C)C1)C2c1cccc(OCc2c(F)cccc2Cl)c1	·	-0.42
Cc1cc2ccccc2n1CCNS(=O)(=O)c1ccccc1	-0.6	0.45
O=C(Nc1c(F)cc(F)cc1Br)c1cc(S(=O)(=O)N2CCC3(CC2)OCCO3)ccc1F	·	-0.28
COc1ccc(NC(=O)CSc2nc3[nH]ncc3c(=O)n2-c2ccc(F)c(Cl)c2)cc1OC	·	-0.085
CC1=NN(c2ccc(C(=O)NCC(O)c3cccc(O)c3)cc2)C(=O)C1 (centres undefined)	·	-0.68
CC1C/C(=C/c2ccncc2)C(=O)/C(=C/c2ccncc2)C1 (centres undefined)	-0.2	-0.15
CC(C#N)OC(=O)c1c(-n2cccc2)sc2c1CCCC2 (centres undefined)	0.95	·
O=C(O)C1C2C=CC(C2)C1C(=O)NC1CCN(Cc2ccccc2)CC1 (centres undefined)	-0.15	·

Full records from above.
`CSc1ccccc1NC(=O)CSc1nccn1C` is listed as AID504770: -0.6; Ba CapD inh: 0.72
`Cc1ccc(OCC(=O)O)c(C)c1` is listed as AID504770: -0.95; Ba CapD inh: -0.085

Of the compounds above, 5 have a COOH group.
SMILES	AID504770	Ba CapD inh
CC(Sc1nnnn1-c1ccccc1)C(=O)O (centres undefined)	0.7	0.38
CC(C)C[C@@H](NC(=O)OCC1c2ccccc2-c2ccccc21)C(=O)O	·	-0.68
C=CCOc1c(CNc2ccc(C(=O)O)cc2)cccc1OCC	-0.8	1.5
Cc1ccc(OCC(=O)O)c(C)c1	-0.95	-0.085
O=C(O)C1C2C=CC(C2)C1C(=O)NC1CCN(Cc2ccccc2)CC1 (centres undefined)	-0.15	·

The list continues.
SMILES	AID504770	Ba CapD inh
C=CCC1CC(=O)N(c2ccc(Cl)cc2)C1=O (centres undefined)	-0.35	1.1
CCn1c(C(=O)O)c(CC(=O)Nc2ccc(Br)cc2C)c2ccccc21	·	-0.26
CN(C)c1nn(C(=O)Nc2ccccc2)cc1-c1ccc(Oc2ccccc2)cc1	·	5.1
O=c1[nH]c(=S)n(-c2cccc3ccccc23)c(O)c1/C=C1\C=Nc2ccccc21	1.6	-0.99
CC(=O)Nc1ccccc1C(=O)C(=S)N1CCN(C)CC1	0.3	·
CC(OC(=O)c1cccnc1)C(=O)Nc1ccc2c(c1)OCO2 (centres undefined)	-1	·
Cc1ccc(SCCNC(=O)c2ccc3ccccc3n2)cc1	-0.55	-0.1
COc1ccc2oc(C(=O)OCC#N)c(C)c2c1	0.25	·
O=C(COc1ccccc1F)NN1C(=O)NC2(CCCCC2)C1=O	-0.5	·
COc1ccc2[nH]c3c(=O)n(CCN4CCC(Cc5ccccc5)CC4)cnc3c2c1	-0.3	0.065
COc1ccc(N2C(=O)CC(N3CCCCC3C)C2=O)cc1 (centres undefined)	0.75	·
Cc1ccc(NC(=O)CSc2ncccn2)c(S(=O)(=O)N2CCCCC2)c1	-0.25	·
Cc1cccc(C)c1NC(=O)c1snnc1C	·	0.33
COc1ccc2cc(-c3nc(N)ncc3C)ccc2c1Br	0.3	4.9
Cn1c(-c2ccccc2)c(C2Nc3ccc4ccccc4c3C3=C2C(=O)CC(C)(C)C3)c2ccccc21 (centres undefined)	·	1.7
O=C(NC1CCCCC1)C(c1ccccn1)N(C(=O)Cn1nnc(-c2ccccc2)n1)c1ccc2c(c1)OCO2 (centres undefined)	2.9	·
CC1CCN(c2nc(N3CCOCC3)nc(N3CCOCC3)n2)CC1	·	0.66
CCOC(=O)c1ccc2nc(C(F)(F)F)nc(NCCCN3CCOCC3)c2c1	-0.55	41
Cc1ccsc1Cn1c(C)ccc1C	-0.55	0.09
COc1ccc([N+](=O)[O-])cc1-c1[nH]c(-c2cccs2)nc1-c1ccccc1	·	-1.8

Reprinted at random: two records from the list, in no set order.
SMILES	AID504770	Ba CapD inh
COc1ccc([N+](=O)[O-])cc1-c1[nH]c(-c2cccs2)nc1-c1ccccc1	·	-1.8
CCOc1cc(C2C(C#N)=C(N)Oc3n[nH]c(-c4cccs4)c32)cc(Br)c1O (centres undefined)	·	-0.17

(next part)
SMILES	AID504770	Ba CapD inh
CCC1(c2cccc(OC(=O)Nc3ccc(OC(F)(F)F)cc3)c2)CCCCN(C)C1=O (centres undefined)	-0.4	0.27
N#Cc1ccc(-c2cccnc2)n(CC(=O)NCc2ccccc2)c1=O	0.25	·
Oc1cc(Cl)c(Cl)cc1O	-3.5*	0.16
Cc1ccccc1NC(=O)Cc1nnc(SCC(=O)c2ccccc2)n1C	-1.1	-0.77
COC(=O)c1cc(-c2ccc(Cl)cc2)on1	-0.4	0.46
CCOC(=O)C(NC(=O)Cn1c2ccccc2c(=O)c2ccccc21)C(=O)OCC	·	72
O=C(Nc1ccc(N2CCCCC2)cc1)c1cc(C(F)(F)F)cc(C(F)(F)F)c1	1.2	0.14
Cc1cc(C)c2c(n1)SCCN2C(=O)Nc1ccc(C(=O)N2CCCCC2)cc1	0.65	-0.69
Cc1nc(N2CCC(C)CC2)c2c(C)c(C(=O)N3CCCCC3C)sc2n1 (centres undefined)	·	0.39
O=S(=O)(NNc1ccc(F)cc1F)c1ccc(Cl)cc1	0.85	-0.86
COc1nc(N)nc(C(C)C)n1	·	0.47
Nc1nonc1C(=O)NN=c1c(=O)c2ccccc2c1=O	-0.8	-2
COc1ccc(-c2cc(=O)oc3cc(O)c(Cl)cc23)cc1	0	0.71
CC(c1ccccc1)n1cnc2cc(N)ccc21 (centres undefined)	-0.2	3.3
CCOC(=O)NNC(=O)c1cc(-c2ccccc2)nc2ccccc12	·	12
Cc1ccc(/C=C/C(=O)Nc2ccccc2C(F)(F)F)c(C)c1	0.55	-2.6
CC1Cc2ccccc2N1CC(=O)NCc1cccs1 (centres undefined)	-0.45	·
O=C(CCSc1nnc(-c2ccccc2)o1)Nc1ccc(F)cc1	-0.5	-0.27
Nc1c(Sc2ccccc2)cc(Sc2ccccc2)c2c1C(=O)c1ccccc1C2=O	·	0.025
Oc1ccccc1-c1csnn1	0.25	-0.42
Cc1c(NC(=O)c2cnn3c2NC(c2ccc4c(c2)OCO4)CC3C(F)(F)F)c(=O)n(-c2ccccc2)n1C (centres undefined)	·	0.12
CN(C)S(=O)(=O)N(C)Cc1ccccc1	1.4	-0.92
COc1ccccc1N1CCNCC1=O	0.15	·
Cc1ccc(/C=C2/SC(=S)N(CN3CCC(C)CC3)C2=O)cc1	·	-1.8

This is a subset; count on the stated rates, not on these rows.
